gsp ag: qHTS for Agonist of gsp, the Etiologic Mutation Responsible for Fibrous Dysplasia/McCune-Albright Syndrome: qHTS | gsp mutant cells, cAMP HTRF, 30 min; control for the full effect not named in the record | 340,000 compounds, 0.13% hits | AID 624287, 2012 | Potency, µM (highest dose often 76.9 µM), for inactives: at the highest dose activation (cAMP increase), hits mostly activators; active = well fitted activation curve with a large enough effect; inconclusive = small, poorly fitted or top-dose-only effect, or another doubt; inactive = no such curve, though single readings can be large or run the other way; cell line not stated here;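 note: phosphodiesterase inhibitor Ro 20-1724 added with compounds to block cAMP breakdown; potency is the fitted concentration of half-maximal effect; nearly all actives have a fitted effect of over 60% in size; about a fifth of the inactives were tested at one dose only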
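Cells stably selected in G418 were plated at 2000/well, grown 16-24 hr, then given compounds in DMSO with the PDE inhibitor […] (300 uM solution added) for 30 min at 37C; cAMP was read by HTRF.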
D2 ag: Beta-Arrestin HTS for Positive Allosteric Modulators of the Human D2 Dopamine Receptor: Agonists; D(2) dopamine receptor (Homo sapiens), P14416; 360,000 compounds, 0.084% hits; activation, % (no concentration beside the values); DiscoveRx PathHunter D2 beta-arrestin, luminescence, 90 min; 100% = 57 uM dopamine signal; in the data active = activation above about 40%; inconclusive = about 15% to 40%; inactive = below about 15%; note: compound concentration not given in the record; the text of the record calls up to 30% inactive
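DiscoveRx PathHunter D2 beta-arrestin cells (2,100/well) attached overnight, then compound-stimulated 90 min at 37 C in HBSS/10 mM HEPES/0.1% Tween-20 buffer; beta-galactosidase complementation read by luminescence after 1 h at ambient temperature. Dopamine 57 uM final (EC100) as control.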
CtBP-E1A inh: qHTS Assay for Inhibitors of the CtBP/E1A Interaction | CtBP / adenovirus E1A interaction (AlphaScreen) | AlphaScreen GST-E1A/His-CtBP binding, 1536-well; active compounds read low; control for the full effect not named in the record | 340,000 compounds, 0.49% hits | AID 651724, 2012 | activity change, % (concentration not given with the values); in the data active means activity change below about -65%; inconclusive means about -30% to -65%; inactive means above about -30%; note: % is set by controls: 0 for no effect and ±100 for the full control effect
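In 5 uL wells, 23 nL compound meets equimolar GST-E1A and His-CtBP (5X stock 125 nM each) for 2 h, 37 °C. Beads (5X, 50 ug/mL) then 1 h, 37 °C, dark.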
D2 potentiator: Beta-Arrestin HTS for Positive Allosteric Modulators of the Human D2 Dopamine Receptor: Potentiators; D(2) dopamine receptor (Homo sapiens), P14416; DiscoveRx D2 beta-arrestin cells, luminescence, 90 min; 100% = 57 uM dopamine signal; potentiation, % (no concentration beside the values); 360,000 compounds, 0.23% hits; active = potentiation of 50% or more; inconclusive = 30% to 50%; inactive = 30% or less;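 note: compound concentration not given in the record; tested on top of an EC20 dose of dopamine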
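PathHunter beta-arrestin assay in DiscoveRx D2 cells. Compounds were added with an EC20 of dopamine (50 nM final) for 90 min at 37 deg C. Luminescence was read 1 h after detection reagent, with 57 uM dopamine as the EC100 control.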
gsp antag: qHTS for Antagonists of gsp, the Etiologic Mutation Responsible for Fibrous Dysplasia/McCune-Albright Syndrome: qHTS. gsp-mutant cells, cAMP HTRF, 30 min; control for the full effect not named in the record. Potency, µM (titrated, usually from 76.9 µM), for inactives: top-dose activity change, negative = inhibition, most hits filed as inhibitors. 340,000 compounds, 0.4% hits. AID 624288, 2012; active = falling curve of any shape with a large fitted effect; inconclusive = falling curve, mostly with a smaller effect; inactive = flat or rising curve; cell line not stated here;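 note: intracellular cAMP measured with PDE inhibitor Ro 20-1724 present during compound exposure; potency is the fitted concentration of half-maximal effect; % is set by controls: 0 for no effect and ±100 for the full control effect; nearly all actives have a fitted effect of over 65% in size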
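G418-selected cells were plated in DMEM/10% FBS for 16-24 h at 37C, then treated with compounds plus the PDE inhibitor […] (300 uM solution added) for 30 min at 37C. Intracellular cAMP was measured by HTRF after 30 min lysis at room temperature.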
Six1-Eya2 inh: qHTS Assay for Inhibitors of the Six1/Eya2 Interaction; Homeobox protein SIX1 (Homo sapiens) + Protein phosphatase EYA2 (Homo sapiens), …; AlphaScreen GST-Six1/His-Eya2 binding, biochemical; active compounds read low; control for the full effect not named in the record; activity change, % (test concentration not listed); 360,000 compounds, 0.56% hits; AID 651725, 2012; in the data active = activity change below about -65%; inconclusive = about -30% to -65%; inactive = above about -30%; note: % is set by controls: 0 for no effect and ±100 for the full control effect
Target sequence (O00167 whole entry, looked up): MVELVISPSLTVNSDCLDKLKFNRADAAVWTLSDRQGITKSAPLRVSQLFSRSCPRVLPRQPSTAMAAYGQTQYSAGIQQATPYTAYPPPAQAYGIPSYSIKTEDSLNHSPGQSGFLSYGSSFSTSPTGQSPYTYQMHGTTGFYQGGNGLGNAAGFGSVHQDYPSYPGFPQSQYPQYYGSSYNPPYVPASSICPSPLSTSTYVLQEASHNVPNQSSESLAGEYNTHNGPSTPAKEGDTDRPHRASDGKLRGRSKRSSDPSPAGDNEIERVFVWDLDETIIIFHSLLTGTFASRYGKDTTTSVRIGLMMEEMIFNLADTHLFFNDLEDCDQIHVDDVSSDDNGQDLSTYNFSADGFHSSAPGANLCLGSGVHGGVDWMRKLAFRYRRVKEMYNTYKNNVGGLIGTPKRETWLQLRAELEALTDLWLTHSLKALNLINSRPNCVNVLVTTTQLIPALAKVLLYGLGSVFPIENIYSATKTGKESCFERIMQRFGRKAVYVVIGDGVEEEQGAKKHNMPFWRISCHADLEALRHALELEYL
Target sequence (Q15475 whole entry, looked up): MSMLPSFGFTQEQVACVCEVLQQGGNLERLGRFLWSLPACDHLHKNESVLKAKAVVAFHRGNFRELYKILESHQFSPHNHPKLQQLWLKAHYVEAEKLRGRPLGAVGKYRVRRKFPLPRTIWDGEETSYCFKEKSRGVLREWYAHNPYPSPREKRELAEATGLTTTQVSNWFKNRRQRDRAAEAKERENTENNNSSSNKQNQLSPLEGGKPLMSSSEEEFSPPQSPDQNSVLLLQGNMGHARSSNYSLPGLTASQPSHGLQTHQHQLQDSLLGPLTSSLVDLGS
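AlphaScreen with GST-Six1 and His-Eya2 (5X mix: 250 nM and 500 nM), glutathione donor and nickel acceptor beads; buffer 50 mM Tris pH 8.0, 300 mM NaCl, 1 mM TCEP; 1 h at 37 C in the dark.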
Active calls of the source: *; ? = inconclusive; · = no result given; [ ] = remark or other dose. No enrichment for hits; any-hit rate near 1.4%.

#	structure	gsp ag	D2 ag	CtBP-E1A inh	D2 potentiator	gsp antag	Six1-Eya2 inh
1	Oc1ccccc1-c1nnc(COc2ccccc2)o1	-38%	-2.7	9	-3	0%	2
2	Cc1csc2c(=O)n3c(nc12)CCCCC3	25%	-1.5	3	-9	2%	-1
3	ON1C(c2ccc(Cl)cc2Cl)N(O)[C@H]2CCCC[C@H]21 (stereo partly drawn)	-31%	-9.4	-3	-43	4%	8
4	COc1cc(CCCN2CCNC[C@@H]2Cc2ccccc2)cc(OC)c1OC	·	-3.0	4	-9	2%	1
5	CCN(CC(=O)Nc1c(F)cccc1F)C(=O)CSc1ccccc1	-13%[15.4 µM]	-0.5	3	-66	5%	3
6	CCN(CC)CCn1c2c(c(SCC(=O)Nc3ccccc3Cl)nc1=O)CCC2	0%	-2.6	-17	-14	8%	0
7	C/C(=N\NC(=O)c1ccncc1)c1cccc(NC(=O)c2ccc(C(C)(C)C)cc2)c1	6%	6.9	1	15	?	3
8	CSc1cccc(NC(=O)OC2CCCCCCCCCCC2)c1	3%	-4.0	·	-12	-4%	5
9	COc1ccccc1CC(=O)O/N=C(\N)c1cccc([N+](=O)[O-])c1	-49%[inhibitor]	?	-12	?	-1%	-3
10	CC(=O)/C=N/Nc1ccccc1	-23%	-4.3	-2	-12	3%	-2
11	COc1ccc2[nH]c3c(c2c1)CCN1C(=O)C(CC(=O)NCCCN(C)C)C[C@H](C(=O)N2CCCCC2)[C@@]31CCc1ccccc1 (stereo partly drawn)	·	-0.3	-8	-4	8%	0
12	O=C(CC1C[C@H](C(=O)N2CCCCC2)[C@@]2(CCc3ccccc3)c3[nH]c4ccccc4c3CCN2C1=O)NCc1cccc(C(F)(F)F)c1 (stereo partly drawn)	·	2.3	3	·	6%	-7
13	O=S(=O)(NC1CCCC1)c1ccc(S(=O)(=O)N(Cc2cccs2)CC2CCCO2)cc1 (stereo not drawn)	15%	0.1	0	-30	-5%	0
14	COc1cc(C(CCN2CCCC2)c2c(OC)cc(OC)c3ccc(=O)oc23)cc(OC)c1OC (stereo not drawn)	·	0.7	-1	-16	-5%	-2
15	COc1ccc(C(=O)OCCc2cc3ccccc3c(=O)o2)cc1	·	3.7	14	-2	?	14
16	Cc1c(Cl)cccc1NC(=S)NCc1ccccc1Cl	11%	-1.8	4	-12	-1%	7
17	Cc1cc(NC(=O)CCC(=O)N(c2ccccc2F)C(C(=O)NC2CCCC2)c2ccccc2)no1 (stereo not drawn)	-16%	4.1	6	-3	-3%	0
18	C=CCOc1ccc(/C=C/C(=O)OCC(=O)NNC(=O)c2ccccc2F)cc1	4%[15.4 µM]	-2.1	6	-15	-14%	-1
19	O=C(Nc1cccc(S(=O)(=O)C(F)(F)F)c1)[C@H]1C[C@H](O)[C@@H](CO)O1	·	-3.8	-22	-6	·	11
20	Cc1cc(NC(=O)c2ccccc2)n(-c2ccccc2)n1	-4%	1.0	·	-5	1%	-1
21	CCOC(=O)C1=C(O)/C(=C\c2ccc(O)c(OCC)c2)N=C1C	18%	-1.4	6	-8	-17%	-1
22	Cc1ccc(C2N=C(N)Nc3nc4ccccc4n32)cc1 (stereo not drawn)	3%[15.4 µM]	1.8	1	-17	·	-3
23	O=C(NCc1ccc(F)cc1)C1CCN(S(=O)(=O)c2ccc(Br)s2)CC1	-4%	6.7	6	0	-3%	0
24	CCOC(=O)CNC(=O)CSc1nc2cccnc2n1C1CCCCC1	-10%	-2.9	-4	-1	-3%	-1
25	Cc1ccc(C(=O)OCC(=O)Nc2ccccc2Cl)c(O)c1	?	-4.2	8	-4	7%	-1
26	COc1ccc(CCn2c(N)cc(=O)[nH]c2=S)cc1OC	17%	-3.1	-22	-20	5%[15.4 µM]	?
27	Cc1cc(C)c(OCC(=O)OCC(=O)NCc2cccs2)c(C)c1	-1%[15.4 µM]	-6.1	-5	-8	9%	-7
28	CCOc1ccc(S(=O)(=O)n2ccc(C)n2)cc1	8%	1.6	7	2	5%	5
29	CCCn1c(COc2ccccc2OC)nc2ccccc21	-8%	-2.4	3	1	-10%	8
30	COc1cccc(C(=O)Oc2ccc3ccc(=O)oc3c2)c1	22%	-5.2	·	-10	13%	4
31	Nc1ccc2c(c1Cl)C(=O)c1ccc(N)c(Cl)c1C2=O	-60%[inhibitor]	15	·	-8	-2%	-78*
32	Cc1ccc(S(=O)(=O)N[C@@H](C)C(=O)N2CCC(C(=O)N[C@@H](Cc3ccccc3)C(=O)O)CC2)cc1	7%	-1.9	-1	-8	8%	7
33	COc1ccccc1N(C)S(=O)(=O)c1ccc(C(=O)Nc2ccc3nc(C)sc3c2)cc1	-70%[inhibitor]	6.0	-9	7	?	-1
34	O=C(COc1ccccc1Br)NC1CCCC1	-35%[inhibitor]	-1.1	10	-22	0%	9
35	Cc1ccccc1NC(=O)C1CC(=O)N(Cc2ccccc2)C1 (stereo not drawn)	21%[15.4 µM]	0.3	29	-12	·	-1
36	CCCOc1ccc(C2C(C(=O)OC)=C(C)N=C3SCCC(=O)N32)cc1OCC (stereo not drawn)	26%	2.8	-2	-12	-3%	-2
37	O=C(NCCS(=O)(=O)N1CCN(c2cccc(Cl)c2)CC1)c1cc(=O)c2ccccc2o1	-6%	-1.4	·	-2	2%	2
38	Cc1ccccc1/C=N\NC(=O)c1csnn1	6%	-4.8	-6	-20	-1%	-4
39	O=C(c1ccc(CS(=O)c2ccccc2Cl)o1)N1CCOCC1 (stereo not drawn)	28%	-2.9	2	-2	17%	1
40	CCN(CC)C(=O)c1cc(-c2ccc(Br)cc2)on1	-68%[inhibitor]	-1.3	6	-9	3%	1
41	Cc1ccc(NC(=O)CCc2nc3ccccc3s2)c(O)c1	-40%[inhibitor]	-1.9	·	-4	-6%	3
42	Cc1ccc(C(=O)N/N=C/c2cn(Cc3ccccc3)c3ccccc23)cn1	-18%	7.1	·	-9	-3%	-3
43	C[C@H]1CN([C@@H](C)CO)C(=O)c2cccc(NC(=O)C3CC3)c2O[C@H]1CN(C)Cc1ccncc1	·	-3.9	5	-5	6%	-1
44	Cc1ccc(-n2c(C)cc(-c3csc(N)n3)c2C)cc1	-5%	-3.9	3	-1	5%	-6
45	Cc1ccc(OCc2nnc(SC3CCc4ccccc4C3=O)n2C)cc1 (stereo not drawn)	10%	10.0	9	51*	-8%	4

Printed as active in D2 potentiator (from the list above):
#	structure	gsp ag	D2 ag	CtBP-E1A inh	D2 potentiator	gsp antag	Six1-Eya2 inh
45	Cc1ccc(OCc2nnc(SC3CCc4ccccc4C3=O)n2C)cc1 (stereo not drawn)	10%	10.0	9	51*	-8%	4

(next part)
#	structure	gsp ag	D2 ag	CtBP-E1A inh	D2 potentiator	gsp antag	Six1-Eya2 inh
46	N#Cc1cc(-c2ccccc2)oc1NC(=O)c1ccco1	2%	-1.9	-1	-38	-2%	-9
47	CN(C)c1ccc(CN(CC2CCCO2)C(=O)c2cccs2)cc1 (stereo not drawn)	?	-0.8	-2	-3	-7%	-1
48	Cc1c(C(=O)Nc2ccccc2)sc2nc(-c3ccccc3)cn12	0%	4.2	-22	-30	-25%	-2
49	COC(=O)c1sccc1S(=O)(=O)Nc1ccc(Cl)cc1	-6%	-0.2	-14	-1	-2%	-8
50	Cc1ccc(C)c(N(CC(=O)NN=C2CCN(C)CC2)S(=O)(=O)c2ccccc2)c1	21%	-1.3	2	-9	6%	5
51	C[C@H](CO)N1C[C@H](C)[C@@H](CN(C)Cc2ccccc2)Oc2c(NS(=O)(=O)c3cn(C)cn3)cccc2C1=O	·	-1.6	-16	-2	8%	-1
52	Cc1ccc(S(=O)(=O)NC[C@H]2O[C@@H](n3ccc(N)nc3=O)[C@H](O)[C@@H]2O)s1	-53%[inhibitor]	-9.0	-8	0	·	-3
53	Cc1ccc2c(c1)OC(c1ccc3c(c1)OCCO3)CC2=O (stereo not drawn)	1%	5.0	·	-4	-20%	5
54	Cc1cc2cc(CN(Cc3ccc4c(c3)OCO4)C(=O)c3ccco3)c(=O)[nH]c2cc1C	-4%	-4.4	-17	-29	?	-16
55	COc1ccc(S(=O)(=O)NC(C)C(=O)NCc2cccnc2)cc1Cl (stereo not drawn)	1%	4.7	5	6	9%	8
56	CC(=O)Nc1ccccc1C(=O)C(=O)NCCc1ccccc1	-11%[15.4 µM]	-0.5	11	9	9%	5
57	Cc1ccc(-c2csc(NC(=O)c3ccc(S(=O)(=O)N4CCc5ccccc54)cc3)n2)cc1	2%	-7.5	0	-2	2%	-3
58	CCCSc1nc2cc(C)c(C)cc2n1CC(O)CO (stereo not drawn)	-6%	1.0	·	-9	-12%	1
59	Cc1ccc(Sc2nc(-c3ccccc3)ccc2C#N)cc1	?	-3.0	17	-16	7%	21
60	C[N+]1(CCCCCCC(=O)/C=N/O)CCCCCC1	6%	0.5	2	5	7%	4

An excerpt from further up, for reference:
#	structure	gsp ag	D2 ag	CtBP-E1A inh	D2 potentiator	gsp antag	Six1-Eya2 inh
39	O=C(c1ccc(CS(=O)c2ccccc2Cl)o1)N1CCOCC1 (stereo not drawn)	28%	-2.9	2	-2	17%	1
40	CCN(CC)C(=O)c1cc(-c2ccc(Br)cc2)on1	-68%[inhibitor]	-1.3	6	-9	3%	1

(list continues)
#	structure	gsp ag	D2 ag	CtBP-E1A inh	D2 potentiator	gsp antag	Six1-Eya2 inh
61	O=C(Cc1cnn(-c2ccccc2)c1)c1ccc(O)c(O)c1O	-10%	?	2	110*	-11%	2
62	CC(=O)Nc1n[nH]c(S(=O)(=O)Cc2ccc(Cl)cc2Cl)n1	15%	-1.1	-1	-3	0%	6
63	Cc1ccc(C)c(NC(=O)CN(C)C(=O)Cc2ccccc2)c1	0%[15.4 µM]	-3.7	-1	-7	12%	-3
64	O=C(Nc1cccc(C(F)(F)F)c1)c1ccc(-n2cncn2)nc1	20%	-1.5	-11	-6	-1%	7
65	COc1ccc(C(=O)NCC(=O)NCC2(N(C)C)CCCCC2)cc1OC	0%	-3.2	3	-1	-1%	-1
66	Nn1cnnc1N/N=C/c1ccc(F)cc1	-18%	?	·	-9	4%	-15
67	CCCN1CCN(C(=O)Cn2nc(CC)n3c(cc4sccc43)c2=O)CC1	1%	-2.6	-21	-4	7%	8
68	Cc1cc(C)cc(NC(=S)Nc2cccc3cnccc23)c1	2%	-3.3	-1	-9	-12%	6
69	CCCOc1ccc(N2C(=O)CC(NCCc3ccc(S(N)(=O)=O)cc3)C2=O)cc1 (stereo not drawn)	20%	-3.1	-7	6	4%	3

Screening results: PubChem BioAssay, National Center for Advancing Translational Sciences (NCATS)
